VACV E9 pol inh – blocks vaccinia virus processive DNA synthesis. in vitro processive DNA synthesis, absorbance read-out; hits give low values; some inactives read as strong as hits. normalized absorbance, % (test concentration not listed). 46,000 compounds, 0.94% hits. AID 493162;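 active = replicate mean up to 90% and picked by the depositor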;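 also: 100% = median of the test wells of a plate; 100 nL library stock went into each well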
Starred values were filed as active, the others as inactive; & = joins results of further samples. The list is partial (hit frequency here may not be typical).

SMILES	VACV E9 pol inh
Cc1nc(C(=O)NCC(=O)c2ccc(Cl)cc2)c(C(F)(F)F)o1	99
N#CCSc1nnc(-c2ccccc2)c2ccccc12	102
Cc1ccc(NC(=O)CSC(=N)N)cc1	101
O=C(OC1CCCCC1)c1cc2ccccc2oc1=O	98
O=C(O)CN1C(=O)/C(=c2/sc3nc4ccccc4n3c2=O)c2cc(Br)ccc21	100
OCCn1c(-c2ccc(-c3ccccc3)cc2)csc1=Nc1ccccc1	100
COc1ccc(Nc2cc(C(=O)NC3CCCCC3)c3ccccc3n2)c(OC)c1	84
CC(=O)N1CCSc2cc(S(=O)(=O)Nc3cccc(C)c3)ccc21	103
O=C(NCC1CCCO1)c1ccc(F)c(F)c1 (stereo not drawn)	106
CNC(=O)c1ccc(C(C)(C)C)cc1	98
C=C1C2(C(=O)Nc3ccc(Br)cn3)CCC(C2)C1(C)C (stereo not drawn)	106
NS(=O)(=O)c1ccc(N=C2C(=O)Nc3ccccc32)cc1	101
CCc1nc2sc3c(c2c(=O)[nH]1)CCC3	95
CC(C)(C)c1cc2oc3c(c2c(C=NCc2ccncc2)c1O)CCCC3	100
Cc1ccc(NC(=O)CSc2nc3c(oc4ccccc43)c(=O)n2Cc2ccc(F)cc2)c(C)c1	83
CCOc1ccc2[nH]cc(C(=O)O)c(=O)c2c1	94
COc1ccccc1NC(=O)c1oc2ccccc2c1NC(=O)Cc1cccc(C)c1	101
Cc1cc(C)cc(NC(=O)COC(=O)c2ccc(F)cc2F)c1	90
O=C1SC(c2ccccc2)=N/C1=C/c1ccco1	100
Cc1ccc(C(=O)Nc2sccc2C(N)=O)cc1C	100
Cc1ccc(-n2c(N)c(C#N)c3nc4ccccc4nc32)cc1C	100
O=C(Nc1ccc(-n2cncn2)cc1)c1ccccc1N1CCOCC1	102
Nc1nc(-c2ccccc2)c(-c2ccccc2)s1	97&87
Clc1ccc(C2=CSc3nnc(Cc4ccccc4)n3N2)cc1	98
O=S(=O)(c1cccs1)N1CCN(c2ccccn2)CC1	101
CCOC(=O)c1c(C)cc2ccccn12	89
Cc1ccc(/C=C2/Sc3ccccc3NC2=O)cc1	99
CCC(=O)Oc1c(Sc2ccc(C)cc2)c(C)nn1C(C)(C)C	88
CC1CCN(C(=O)/C(=C/C=C\c2ccccc2)NC(=O)c2ccccc2)CC1	100
O=C(Nc1ccccc1Cl)c1cc2ccccc2oc1=O	101
Cc1ccc(/C=N/c2sccc2C#N)cc1	101
O=C(CSc1nnc(NC(=O)C2CC2)s1)Nc1ccccc1	102
O=C(c1csc(Nc2cccc3ccccc23)n1)N1CCCCC1	91
CC(=O)N1CCN(c2ccc(OCC3CO[C@](Cn4ccnc4)(c4ccc(Cl)cc4Cl)O3)cc2)CC1 (stereo partly drawn)	100
CCN(CCO)C(=O)c1ccc(C(C)(C)C)cc1	105
O=C1NC(=S)N/C1=C\c1cccc(OCc2ccc(F)cc2)c1	99
Nc1ccc(Oc2ccccc2)cc1	100
COc1ccc(NC(=O)CC#N)cc1OC	107
Cc1ccc(-c2nnc(Nc3ccccc3)c3ccccc23)cc1S(=O)(=O)NC(C)(C)C	100
c1ccc(Sc2ncnc3sc4c(c23)CCCC4)cc1	100
CN1C2CCC1CC(NS(=O)(=O)c1ccc(Cl)cc1)C2 (stereo not drawn)	116
O=C(O)c1c(CNCc2cccnc2)c2ccccc2n1Cc1ccccc1	103
CC(=O)N1CCN(c2nc(-c3ccccc3)c3ccccc3n2)CC1	100
NC(=O)c1nnn(-c2ccccc2)c1N	86
O=C(NC12CC3CC(CC(C3)C1)C2)c1cccs1	100
O=C(CCSc1ccccc1)NC12CC3CC(CC(C3)C1)C2	99
Cc1ccccc1-n1c(SCCc2ccccc2)nc2ccccc2c1=O	100
COc1ccc(C2CC(=O)NN2)cc1OC1CCCC1 (stereo not drawn)	105
OCc1ccccc1CNC1CCCCC1	94
Cc1cccc(-c2noc(CCC(=O)NC(C)(C)C)n2)c1	98
CCN(C(=O)c1cc2cc3ccc(C)cc3nc2s1)c1ccc(C)c(C)c1	102
S=C(NCc1csc2ccccc12)NCC1CC1	96
CCOC(=O)c1ccc(NC(=S)N2CCCN(Cc3cc(C)ccc3C)C2)cc1	102
Brc1ccc(-c2nc3ccccc3s2)s1	91
Cc1ccc(-c2ccc(O)c(C)c2)cc1	102
Cn1c(=O)oc2cc(S(=O)(=O)N3CC(=O)N(CCc4ccccc4)C(=O)C3)ccc21	106
COc1cc(OC)cc(C2C(C#N)=C(N)Nc3oc(C)nc32)c1 (stereo not drawn)	100
CCc1ccc(NC(=O)C(C)Nc2ccc(Br)cc2)cc1 (stereo not drawn)	100
Cc1ccccc1-c1ccc2cccc(C)c2n1	100
CN(Cn1c(=O)oc2ccccc21)C1CCCCC1	98

Following part:
SMILES	VACV E9 pol inh
O=C(Nc1cccc(I)c1)C(=O)c1c(O)[nH]c2ccccc12	105
Cc1[nH]c2ccccc2c1C=Nc1ccccc1Br	100
COc1ccc(CCN=C(N)Nc2nc(C)cc(C)n2)cc1OC	91
CC(=O)N1CCN(c2ccc(NC(=O)c3cc(Br)ccc3Cl)cc2)CC1	101
c1ccc(Cn2nnc3cnccc32)cc1	96
COc1ccc(C(=O)c2c(N)sc3c2CCN(C)C3)cc1	91
CCC1(CC)C(=O)N(CC(=O)OC)C(=O)N(C)C1=S	90
CN(C(=O)Cc1noc2ccccc12)c1ccccc1	101
CC(c1ccccc1)C(CC(=O)O)C(=O)O (stereo not drawn)	100
COc1ccc(CC(=O)NCc2cc(C)oc2C(F)(F)F)cc1OC	99
Oc1c(C(c2cccs2)N2CCOCC2)sc2ncnn12 (stereo not drawn)	95
COc1cc(C(=O)CBr)cc(OC)c1OC	89
CC1CCCCN1C(=O)Cn1c(=O)n(C2CCCC2)c(=O)c2ccccc21 (stereo not drawn)	104
O=C(/C=C/c1ccc2c(c1)OCO2)NCCn1ccc2ccccc21	96
O=S(=O)(c1ccc(Cl)s1)N1CCN(S(=O)(=O)c2ccc(Cl)s2)CC1	99
CC12CCC(C(=O)O)(c3nc4ccc5ncccc5c4nc31)C2(C)C (stereo not drawn)	107
CCc1ccc(/C(C#N)=C/C=C/c2ccccc2)cc1	106
N#Cc1c(N)nc(Sc2ccc(Cl)cc2)c(C#N)c1-c1ccccc1	96
c1ccc2sc(-c3ccn[nH]3)cc2c1	78
O=C(COC(=O)c1c2c(nc3ccccc13)CCC2)c1ccccc1	89

Grouped by structure, the entries above with a CF3 group (2)
SMILES	VACV E9 pol inh
Cc1nc(C(=O)NCC(=O)c2ccc(Cl)cc2)c(C(F)(F)F)o1	99
COc1ccc(CC(=O)NCc2cc(C)oc2C(F)(F)F)cc1OC	99

Next records follow.
SMILES	VACV E9 pol inh
COc1cccc2cc(C(=O)O)oc12	92
CN1C(C(=O)Nc2cccnc2)=CC(c2cccs2)=NS1(=O)=O	100
Cc1cc(C)c(C(=O)Cn2c(=S)[nH]c3ccccc32)c(C)c1	100
NC(=O)COc1ccc2c(-c3ccccc3)cc(=O)oc2c1	100
Cc1ccc(Oc2ncccc2NC(=O)c2ccc3c(c2)OCCCO3)c2c1CCC2	102
O=S(=O)(c1ccc(-c2ccccn2)s1)N1CCCCC1	94
Cc1ccccc1OCCCn1cc(C(=O)C(C)(C)C)c2ccccc21	97
c1ccc(OCCCn2c3ccccc3c3nc4ccccc4nc32)cc1	100
Cc1nc2ccccc2n1Cc1cccc(Cl)c1	97
CC(C)n1c(Cc2ccccc2)nc2ccccc21	100
O=c1cc(-c2ccccc2)oc2ccc(Cl)cc12	102
CCS(=O)CCSc1nc(-c2ccc(C)cc2)cc(-c2ccccc2)c1C#N (stereo not drawn)	100
CCSc1nc2c(c(=O)n1-c1ccc(C)cc1)SCC2	100
CC(N)C(O)c1cccc(O)c1 (stereo not drawn)	101
Oc1ccccc1C(O)C(F)(F)F (stereo not drawn)	102
Cc1cc(C)nc(NC2=NCCN2)n1	48*
COC(=O)c1ccc(Cn2cc(Cl)cn2)cc1	100
O=C(Nc1ccccc1SC(F)(F)F)c1cccnc1	98
CC1=C(c2ccc(C)cc2)S(=O)(=O)N=C1Nc1ccc(C)cc1	100
CC(C)=CCC1=C(O)c2ccccc2C(=O)C1=O	100

Reprinted at random: 2 compounds from above
SMILES	VACV E9 pol inh
Cc1cc(C)nc(NC2=NCCN2)n1	48*
O=S(=O)(c1ccc(-c2ccccn2)s1)N1CCCCC1	94

Continuation.
SMILES	VACV E9 pol inh
Cc1[nH]c2ccccc2c1SCCNC(=O)C(C)(C)C	91
COc1ccc(C(=O)NC(N2CCCCC2c2cccnc2)(C(F)(F)F)C(F)(F)F)cc1 (stereo not drawn)	101
CN(C)C(=O)/C=C/c1cn(-c2ccccc2)nc1-c1ccccc1	96
CCC(C)NC(=O)c1cc(S(=O)(=O)N2CCc3ccccc3C2)ccc1Cl (stereo not drawn)	102
O=c1[nH]c(CCl)nc2sc3c(c12)CCC3	100
O=C1/C(=C/c2ccco2)CN(Cc2ccccc2)C/C1=C\c1ccco1	98
CCOC(=O)c1cc2ccccc2oc1=N	96
O=C(C1c2ccccc2Oc2ccccc21)N1CCN=C1SCc1ccccc1F	98
Cc1cccc(OCC(=O)NCc2ccccc2)c1	87
O=C1CCCN2N=C(SCC(=O)OCc3ccccc3)SC2=N1	102
O=C(O)C1C2C=CC(C2)C1C(=O)NCCc1ccncc1 (stereo not drawn)	109
O=c1[nH]c(-c2ccccc2O)nc2sc3c(c12)CCCC3	100
Cc1ccc(Oc2ccc(C)c(C)c2)cc1C	100
CCOC(=O)C1=C(N)SC(c2ccccc2)=C(C#N)C1c1ccco1 (stereo not drawn)	98
O=C1C(C=NC(CO)(CO)CO)=C(O)c2ccccc21	100
Cc1ccc(OCC(=O)n2cnnc2N)c(C)c1	101
CC(=O)NC(N1CCCCC1c1cccnc1)(C(F)(F)F)C(F)(F)F (stereo not drawn)	98
O=C(CN1/C(=C(/O)c2ccccc2)C(=O)c2ccccc2S1(=O)=O)c1ccccc1	100
CC(N)=NCc1cccc(CN)c1	102
CC12CNC3(CO)CC1CCC32C (stereo not drawn)	97
O=c1n(Cc2ccccc2)c2ccccc2n1Cc1ccccc1	100
Cn1c2c(c3cc(C4CCCCC4)ccc31)C(=O)CCC2	100
COC(=O)c1ccc(COC(=O)c2ccccc2C(F)(F)F)cc1	103
CC1CCCC(NC(=O)COC(=O)c2ccc(Br)cc2)C1C (stereo not drawn)	97

Gathered by group: the compounds so far with a thiophene ring, fused or not.
SMILES	VACV E9 pol inh
CCc1nc2sc3c(c2c(=O)[nH]1)CCC3	95
Cc1ccc(C(=O)Nc2sccc2C(N)=O)cc1C	100
O=S(=O)(c1cccs1)N1CCN(c2ccccn2)CC1	101
Cc1ccc(/C=N/c2sccc2C#N)cc1	101
c1ccc(Sc2ncnc3sc4c(c23)CCCC4)cc1	100
O=C(NC12CC3CC(CC(C3)C1)C2)c1cccs1	100
CCN(C(=O)c1cc2cc3ccc(C)cc3nc2s1)c1ccc(C)c(C)c1	102
S=C(NCc1csc2ccccc12)NCC1CC1	96
Brc1ccc(-c2nc3ccccc3s2)s1	91
COc1ccc(C(=O)c2c(N)sc3c2CCN(C)C3)cc1	91
Oc1c(C(c2cccs2)N2CCOCC2)sc2ncnn12 (stereo not drawn)	95
O=S(=O)(c1ccc(Cl)s1)N1CCN(S(=O)(=O)c2ccc(Cl)s2)CC1	99
c1ccc2sc(-c3ccn[nH]3)cc2c1	78
CN1C(C(=O)Nc2cccnc2)=CC(c2cccs2)=NS1(=O)=O	100
O=S(=O)(c1ccc(-c2ccccn2)s1)N1CCCCC1	94
O=c1[nH]c(CCl)nc2sc3c(c12)CCC3	100
O=c1[nH]c(-c2ccccc2O)nc2sc3c(c12)CCCC3	100

Bioassay records: PubChem BioAssay, ICCB-Longwood Screening Facility, Harvard Medical School
